KCNQ1 act: potentiators or activators of human KCNQ1 potassium channel. CHO-K1 KCNQ1, thallium flux FluxOR fluorescence; hits give high values. B-score at 10 µM. 310,000 tested, 0.35% active. AID 2648;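 active means fluorescence ratio B-score, a plate-corrected score, at least three library SD, with initial intensity B-score within 5 SD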
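Medium – assay buffer, equal DMSO in all wells · Material – CHO-K1 cell line with stable KCNQ1 potassium channel expression · Signal – kinetic FluxOR thallium fluorescence, 10-s 1-Hz baseline, 110-s post-stimulus read · Compound – single concentration per compound, DMSO matched to controls · Schedule – 37 °C overnight plating, 90-min dark dye load, 20-min compound pretreatment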
PolyA inhibitor: inhibitors of polyadenylation in S. cerevisiae; S. cerevisiae SKY197-pL101 polyadenylation reporter, beta-gal luminescence; efflux-impaired pdr1/pdr3 knockout yeast; score 100 = 6 SD above DMSO; calls only at 12 µM; 300,000 tested, 0.02% active; AID 1875;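 active means lowest replicate activity score at least 50, where 100 means six control SD above control mean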;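 further: yeast exposed to compound for 9 h at 30 °C; higher score means more reporter readthrough which indicates perturbed polyadenylation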
GSK3beta inhib: inhibitors of human GSK3beta kinase. P49841. GST-GSK3beta kinase, ADP-Glo luminescence, 60 min; hits give low values. activity score (negative = inhibition), % at 10 µM. 300,000 tested, 0.038% active;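 active means more than half of replicate wells score below -50%, meaning over 50% inhibition versus plate controls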;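 further: 0% = median DMSO wells and -100% = median GW8510 positive control wells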
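Test system – GST-tagged human GSK3beta kinase, cell-free · Incubation – 60 min enzyme reaction, room temperature · Signal – ADP-Glo luminescence · Also added – peptide substrate and ATP at 25 µM · Controls – DMSO neutral wells and GW8510 at 20 µM as positive · Buffer or medium – Tris/MgCl2 kinase buffer · Measure – Luminescence-derived activity versus plate DMSO and GW8510 wells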
DYRK1A inh: blocks rat Dyrk1A kinase activity. Q63470. inhibition, % at 12.5 µM. 310,000 tested, 0.43% active. ADP-Glo luminescence, NFATc1 peptide; in the data active means inhibition above about 50%;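 further: plate controls were vehicle with enzyme for no effect and no enzyme for full effect; many of its hits are not listed in these tables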
KCNQ1 inh: blocks the human KCNQ1 potassium channel | B-score at 10 µM | 310,000 tested, 1.3% active | CHO-K1 KCNQ1, FluxOR thallium flux fluorescence; hits give high values | P51787;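 active means compounds whose thallium flux B-score, printed positive for inhibition, exceeds three library SD while starting fluorescence stays within three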;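 further: channel opened by potassium depolarization with thallium stimulus after 20 min compound exposure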
GSK3 alpha inh: human GSK-3 alpha kinase inhibition; P49840; inhibition, % at 10 µM; 320,000 tested, 0.1% active; ADP-Glo luminescence, 60 min;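 in the data active means inhibition above about 50%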;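 further: GST-tagged GSK-3 alpha with peptide substrate and 25 µM ATP; 0% = DMSO neutral wells and 100% = GW8510 positive control wells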
Target sequence (P49840 whole entry, looked up): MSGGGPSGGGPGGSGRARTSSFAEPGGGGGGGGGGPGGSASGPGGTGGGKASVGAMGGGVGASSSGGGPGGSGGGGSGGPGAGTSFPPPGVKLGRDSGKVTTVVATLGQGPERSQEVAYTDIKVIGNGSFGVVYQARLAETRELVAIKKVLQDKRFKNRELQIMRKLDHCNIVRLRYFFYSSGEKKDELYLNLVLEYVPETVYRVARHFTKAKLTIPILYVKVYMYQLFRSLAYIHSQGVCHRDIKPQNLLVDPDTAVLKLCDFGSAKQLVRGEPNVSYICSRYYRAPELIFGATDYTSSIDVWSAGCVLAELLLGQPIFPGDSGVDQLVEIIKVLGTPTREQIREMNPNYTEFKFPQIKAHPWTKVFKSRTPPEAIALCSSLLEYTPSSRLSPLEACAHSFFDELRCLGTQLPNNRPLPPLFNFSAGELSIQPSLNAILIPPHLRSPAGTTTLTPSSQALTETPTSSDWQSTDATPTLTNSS
Starred values were filed as active, the others as inactive; i = inactive; nt = no result given; & = joins results of further samples.

Abbreviations: A = KCNQ1 act; B = PolyA inhibitor; C = GSK3beta inhib; D = DYRK1A inh; E = KCNQ1 inh; F = GSK3 alpha inh
CC1CCC2[C@@H](C)C(=O)OC3O[C@]4(C)CCC1C32OO4 (stereo not given in full)
  A: i | B: i | C: -0.9 | D: 11.7 | E: i | F: -2.4
CN(C)C1C(=O)C(C(N)=O)=C(O)C2(O)C(=O)C3=C(O)c4c(O)cccc4C(C)(O)C3CC12 (stereo not given)
  A: i | B: i | C: -2.3 | D: 1.5 | E: i | F: 4.5
O=C(c1cccc([N+](=O)[O-])c1)C12CN3CN(CN(C3)C1)C2
  A: i | B: i | C: -3.5 | D: -1.1 | E: i | F: -1.1
CN(C)[C@@H]1C(=O)C(C(N)=O)=C(O)[C@@]2(O)C(=O)C3=C(O)c4c(O)ccc(Cl)c4[C@@](C)(O)C3C[C@@H]12 (stereo not given in full)
  A: nt | B: nt | C: nt | D: 0.3 | E: nt | F: nt
CCOC(=O)c1cncn1C(C)c1ccccc1 (stereo not given)
  A: i | B: i | C: -0.1 | D: 1.6 | E: i | F: -2.5
CC[C@@H](CO)NC(=O)[C@@H]1C=C2c3cccc4[nH]cc(c34)C[C@H]2N(C)C1
  A: nt | B: nt | C: nt | D: -8.4 | E: nt | F: nt
CCOC(=O)c1cc(CC)sc1/N=C/C1C(=O)NC(=S)NC1=O
  A: i | B: i | C: 0.7 | D: -0.4 | E: i | F: -2.4
O=S(=O)(c1ccc(Cl)cc1)N1CC1c1ccccc1 (stereo not given)
  A: i | B: i | C: 6.2 | D: 3.1 | E: i | F: -0.9
COc1ccc(C(=O)N2CCCC2=O)cc1
  A: i | B: i | C: -4.0 | D: 1.8 | E: i | F: 0.0
C[C@]12N[C@H](Cc3ccccc31)c1ccccc12
  A: i | B: i | C: -1.5 | D: -2.8&4.5 | E: i | F: 1.9
Cc1ccc2c(c1)=C/C(=C\c1c(O)[nH]c(=O)[nH]c1=O)C(=O)N=2
  A: i | B: i | C: -2.5 | D: 1.1 | E: i | F: -2.8
[Cl][Pt+2][Cl].[NH-]C1CCCCC1[NH-] (stereo not given)
  A: nt | B: nt | C: nt | D: -4.7 | E: nt | F: -2.0
COc1ccc2c(c1O)-c1cccc3c1[C@@H](C2)N(C)CC3
  A: i | B: i | C: 0.4 | D: 4.6 | E: i | F: -0.7
Cc1ccc(CN2CCCN(Cc3ccc(Cl)cc3)S2(=O)=O)cc1
  A: i | B: i | C: 4.0 | D: 0.2 | E: i | F: -1.0
O=c1[nH]c2ccccc2n1CCCN1CCC(n2c(=O)[nH]c3cc(Cl)ccc32)CC1
  A: i | B: i | C: 2.0 | D: 8.1 | E: i | F: -0.5

Laid out differently: results already given
| SMILES | KCNQ1 act | PolyA inhibitor | GSK3beta inhib | DYRK1A inh | KCNQ1 inh | GSK3 alpha inh |
| --- | --- | --- | --- | --- | --- | --- |
| CN(C)C1C(=O)C(C(N)=O)=C(O)C2(O)C(=O)C3=C(O)c4c(O)cccc4C(C)(O)C3CC12 (stereo not given) | i | i | -2.3 | 1.5 | i | 4.5 |
| O=C(c1cccc([N+](=O)[O-])c1)C12CN3CN(CN(C3)C1)C2 | i | i | -3.5 | -1.1 | i | -1.1 |
| CN(C)[C@@H]1C(=O)C(C(N)=O)=C(O)[C@@]2(O)C(=O)C3=C(O)c4c(O)ccc(Cl)c4[C@@](C)(O)C3C[C@@H]12 (stereo not given in full) | nt | nt | nt | 0.3 | nt | nt |
| CCOC(=O)c1cncn1C(C)c1ccccc1 (stereo not given) | i | i | -0.1 | 1.6 | i | -2.5 |
| CC[C@@H](CO)NC(=O)[C@@H]1C=C2c3cccc4[nH]cc(c34)C[C@H]2N(C)C1 | nt | nt | nt | -8.4 | nt | nt |

Three compounds from above, limited to KCNQ1 inh and DYRK1A inh:
canonical_smiles,KCNQ1 inh,DYRK1A inh
CC[C@@H](CO)NC(=O)[C@@H]1C=C2c3cccc4[nH]cc(c34)C[C@H]2N(C)C1,nt,-8.4
CN(C)C1C(=O)C(C(N)=O)=C(O)C2(O)C(=O)C3=C(O)c4c(O)cccc4C(C)(O)C3CC12 (stereo not given),i,1.5
Cc1ccc2c(c1)=C/C(=C\c1c(O)[nH]c(=O)[nH]c1=O)C(=O)N=2,i,1.1

(continued)
Abbreviations: A = KCNQ1 act; B = PolyA inhibitor; C = GSK3beta inhib; D = DYRK1A inh; E = KCNQ1 inh; F = GSK3 alpha inh
OC1/C(=C/c2ccc(Cl)cc2Cl)N2CCC1CC2 (stereo not given)
  A: i | B: i | C: -1.1 | D: -6.4 | E: i | F: -10.2
CCN1C[C@]2(OC(=O)c3ccccc3NC(C)=O)CCC(OC)C34C5C[C@H]6C(OC)[C@]5(O)[C@](O)(C[C@@H]6OC)C(C[C@@H]32)[C@H]14 (stereo not given in full)
  A: i | B: i | C: 1.6 | D: -0.6 | E: i | F: -0.9
O=C1NC(=O)N(Cc2ccco2)C(=O)/C1=C\c1ccc(-c2ccc(F)cc2)o1
  A: i | B: i | C: 1.6 | D: nt | E: i | F: -2.2
Clc1ccc(COC(Cn2ccnc2)c2ccc(Cl)cc2Cl)c(Cl)c1 (stereo not given)
  A: i | B: i | C: 3.3 | D: -3.8&2.8 | E: i | F: -2.2
CCC(CO)NC(=O)C1C=C2c3cccc4[nH]cc(c34)CC2N(C)C1 (stereo not given)
  A: i | B: i | C: 3.2 | D: 1.1 | E: i | F: -3.0
Clc1ccc(CSC(Cn2ccnc2)c2ccc(Cl)cc2Cl)cc1 (stereo not given)
  A: i | B: i | C: 0.5 | D: -0.3 | E: 6* | F: -0.6

Rewritten bar-delimited: part of the list above.
SMILES | KCNQ1 act | PolyA inhibitor | GSK3beta inhib | DYRK1A inh | KCNQ1 inh | GSK3 alpha inh
CCC(CO)NC(=O)C1C=C2c3cccc4[nH]cc(c34)CC2N(C)C1 (stereo not given) | i | i | 3.2 | 1.1 | i | -3.0
OC1/C(=C/c2ccc(Cl)cc2Cl)N2CCC1CC2 (stereo not given) | i | i | -1.1 | -6.4 | i | -10.2

Only part of the results is shown; the hit share may differ from the screen's.
